Bioassay records (PubChem BioAssay)
Ecoli growth: E. coli growth inhibition; Escherichia coli growth, OD600, 23 h; active compounds read low; OD600 absorbance (concentration not given with the values); hit rate 0.21% among 330,000;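 active = OD600 absorbance below the run mean of sample wells minus 3.6 SD, in any replicate, cut at about 0.56 in these data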;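 also: stock transfer was 300 nL into about 60 µL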
UCH37 DUB inh: human UCH37 deubiquitinating enzyme inhibition; inhibition, % (no concentration beside the values); AID 588478; purified proteasome/UCH37, Ub-AMC cleavage fluorescence; hit rate 0.33% among 330,000;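 active = mean of two replicates above 20%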;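 also: 0% = compound-free wells with enzyme and 100% = wells lacking proteasome; stock transfer was 100 nL into about 20 µL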
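Schedule: 30 min plus 25 min, room temperature / Material: human UCH37 within purified proteasomes / Technique: AMC fluorescence intensity at 355/460 nm / Buffer or medium: pH 7.4 Tris-HCl (50 mM) with ovalbumin, ATP-MgCl2, DTT / Controls: wells without proteasome as full block, compound-free enzyme plus substrate as uninhibited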
HNF4A DNA FP: change in binding of human HNF4 alpha to DNA; P41235; HNF4a-FITC DNA binding, fluorescence polarization, 1 h; AID 1224865; activity change, % at 10 µM; hit rate 0.3% among 360,000; in the data active = activity change above about 30%, passing the limit was not always enough;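 also: controls were the assay level and a saturating level of protein; the project sought stronger binding though the title names inhibitors; some compounds called inactive have numbers as strong as hits; positive values seem to mean higher polarization but the record does not say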
Target sequence (P41235 whole entry, looked up): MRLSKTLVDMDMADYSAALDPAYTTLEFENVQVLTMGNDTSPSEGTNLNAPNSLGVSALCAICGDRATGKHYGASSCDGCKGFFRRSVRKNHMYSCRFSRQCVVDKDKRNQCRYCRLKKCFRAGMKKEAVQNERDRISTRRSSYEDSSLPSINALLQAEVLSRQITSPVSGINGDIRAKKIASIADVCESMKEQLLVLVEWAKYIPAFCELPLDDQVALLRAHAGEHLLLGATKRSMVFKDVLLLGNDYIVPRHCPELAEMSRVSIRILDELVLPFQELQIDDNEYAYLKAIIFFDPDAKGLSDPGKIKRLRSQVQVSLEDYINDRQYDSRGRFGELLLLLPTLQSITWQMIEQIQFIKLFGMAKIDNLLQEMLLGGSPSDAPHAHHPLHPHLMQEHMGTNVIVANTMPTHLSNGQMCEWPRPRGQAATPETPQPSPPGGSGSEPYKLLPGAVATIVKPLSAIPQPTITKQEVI
MLL AF4-AF9 inh: MLL-AF4/AF9 protein interaction inhibition; AlphaScreen, biotin-AF4 peptide binding to FLAG-AF9; inhibition, % at 10 µM; hit rate 0.47% among 350,000; AID 651704;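 active = every replicate reaching a set inhibition limit, whatever the replicate mean, cut at about 25% in these data; inconclusive = mean inhibition reaches that limit but some replicates miss it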;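 also: 0% = plate neutral control median and 100% = total signal loss; the record names both 10 and 1 µM as test concentration; the first replicate is given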
Target sequence (P42568 whole entry, looked up): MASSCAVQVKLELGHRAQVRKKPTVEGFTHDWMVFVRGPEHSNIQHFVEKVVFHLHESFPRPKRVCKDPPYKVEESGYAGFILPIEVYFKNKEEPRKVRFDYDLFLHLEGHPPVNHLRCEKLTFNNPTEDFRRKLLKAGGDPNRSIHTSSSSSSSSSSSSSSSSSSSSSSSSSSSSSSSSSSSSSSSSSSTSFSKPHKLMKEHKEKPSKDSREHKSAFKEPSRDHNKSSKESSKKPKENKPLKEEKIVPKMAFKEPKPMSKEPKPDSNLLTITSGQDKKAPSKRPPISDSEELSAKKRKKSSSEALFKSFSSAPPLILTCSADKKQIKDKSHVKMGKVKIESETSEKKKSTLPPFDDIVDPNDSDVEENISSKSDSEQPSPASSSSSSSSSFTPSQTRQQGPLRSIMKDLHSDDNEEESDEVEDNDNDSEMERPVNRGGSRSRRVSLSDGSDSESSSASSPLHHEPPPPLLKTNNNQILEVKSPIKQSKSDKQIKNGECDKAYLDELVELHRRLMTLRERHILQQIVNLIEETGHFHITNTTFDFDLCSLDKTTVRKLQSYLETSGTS
FGF22 binding: FGF22 (human) thermal shift binding | Q9HCT0 | recombinant FGF22 thermal shift, SYPRO orange fluorescence; percent of sucrose octasulfate shift, DMSO zero | calls only at 9.99 µM | hit rate 1.5% among 340,000 | AID 651658;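 active = melting point raised past a set limit in the mean and every replicate; inconclusive = no clear call; three in four hits are not shown here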
Vif A3G: inhibitors of Vif binding to APOBEC3G peptide, primary screen, biochemical, TR-FRET, GST-Vif 1-94, biotin-A3G peptide, dose response retest (AID 1117319); hit rate 0.57% among 260,000; one-dose inhibition, %; IC50 in µM for titrated hits; TR-FRET GST-Vif / biotin-A3G peptide binding; higher % means a stronger effect; test concentration not given here; strong numbers were not always called active;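 active = above the screen mean plus three standard deviations and confirmed in dose response; inconclusive = results disagree or hit not tested in dose response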;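 also: Vif residues 1-94 fused to GST binding biotinylated APOBEC3G peptide 110-148; 0% = full assay without inhibitor and 100% = GST in place of GST-Vif; retest series ran down from 100 µM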
RanGTP-Imp inh: inhibitors of RanGTP-importin-beta interaction, primary screen, biochemical, FRET, CFP-Ran, YFP-importin-beta, homogeneous. cell-free CFP-Ran/YFP-importin-beta FRET ratio. AID 2216. inhibition, % (concentration not given with the values). hit rate 1.1% among 300,000;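 active = most replicates above 15%; inconclusive = exactly half above 15%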;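 also: 0% = DMSO wells and 100% = Ran loaded with GDP instead of GTP; wells of about 40 µL received 100 nL stock; the first replicate is given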
Starred values were filed as active, the others as inactive; i = inactive; u = inconclusive; x = not tested or not shown; & = joins results of further samples. An excerpt, so the mix of outcomes need not match the whole.

smiles	Ecoli growth	UCH37 DUB inh	HNF4A DNA FP	MLL AF4-AF9 inh	FGF22 binding	Vif A3G	RanGTP-Imp inh
CC[C@]12c3[nH]c4ccc(Cl)cc4c3CCN1C(=O)[C@@H](CC(=O)NCc1ccc(OC)c(OC)c1)C[C@@H]2C(=O)N1CCN(C(=O)C2CC2)CC1	0.7	-2.7	1.5	0.9	i	3%	x
O=C(Cn1c(=O)sc2ccccc21)Nc1ccc(S(=O)(=O)N2CCCCC2)cc1	0.73	2.0	-0.4	x	x	1%	-2.4
CCOCCCNc1nc(-c2ccccc2)nc2ccccc12	0.65	-3.8	1.0	-15	i	x	9.8
O=C(OCc1ccccc1)C1=NNC2C(=O)N(Cc3ccccc3)C(=O)C12 (stereo unspecified)	0.72	1.7	3.5	5.9	x	x	3.4
CC(=O)c1cc(-c2ccccc2)n(CCC(=O)NC2CCCCCC2)c1C	0.68	2.7	0.7	x	x	x	1.4
N#Cc1c(-c2ccc(F)cc2)nc(-c2ccccc2)[nH]c1=O	0.7	2.0	-1.1	-1.4	i	-6%	1.2
O=C(CC1Nc2ccccc2NC1=O)Nc1ccccc1NC(=O)CC1Nc2ccccc2NC1=O (stereo unspecified)	0.71	-2.8	x	x	x	25%	0.4
O=C(CN1CSCC1=O)N1CCN(S(=O)(=O)c2cc(C(F)(F)F)ccc2Cl)CC1	0.67	0.6	3.2	-0.5	i	-1%	x
CC(C)C[C@H](NC(=O)N1CCN(c2ccccc2)CC1)C(=O)O	0.67	7.2	1.7	x	x	u	3.0
O=C(c1cc2ccccc2[nH]1)N1O[C@@H]2C=C[C@H]1C2	0.71	1.5	-0.3	-4.2	i	-10%	x
CC(=O)C1=C(C)NC(=O)NC1c1cccc([N+](=O)[O-])c1O (stereo unspecified)	0.64	8.1	0.8	0.5	i	-2%	-2.0
CCc1nnc(NC(=O)CCC(=O)N2CCN(c3ccccn3)CC2)s1	0.64	-6.5	-1.8	x	x	9%	u
COc1ccccc1-n1c(SCC(=O)NC2CCCCC2)nc2c(c1=O)SCC2	0.73	8.1	-3.8	1.7	i	14%	4.7
CC(C)OC(=O)CSc1nnc2c(n1)[nH]c1ccc(F)cc12	0.69	4.2	-1.6	-3.2	i	-5%	-5.4
COc1cccc(-c2cc3nc(-c4ccccc4)cc(N4CCCC(O)C4)n3n2)c1 (stereo unspecified)	0.75	-56	-0.3	x	x	x	0.8
COC(=O)[C@@]1(Cc2ccc(OC)cc2)[C@H]2c3cc(C(=O)N4CCCC4)n(CCc4ccc(OC)c(Br)c4)c3C[C@H]2CN1C(=O)c1ccccc1	x	x	6.5	4.3	i	x	x
Clc1ccccc1Cn1c(/C=C/c2ccco2)nc2ccccc21	0.71	-110	18	x	x	u	6.8
c1ccc(CCNc2ncnc3nc[nH]c23)cc1	0.79	3.4	-0.3	x	x	1%	1.6
COCC1CCN(Cc2nc(-c3cccs3)no2)C1 (stereo unspecified)	0.71	1.2	2.4	0.2	x	8%	-1.9
O=C(NC1CCCc2ccccc21)c1cccc(S(=O)(=O)N2CCOCC2)c1 (stereo unspecified)	0.67	0.0	-0.5	0.2	i	-3%	2.1
COc1ccccc1Cc1c(C2CCCCC2)nc2cc(C)c(Br)c(C)n12	x	x	-2.0	0.1	i	x	x
O=C(Nc1ccc(Br)cc1)c1cccc(N2C(=O)C3C4CCC(C4)C3C2=O)c1 (stereo unspecified)	0.66	1.6	3.5	x	x	6%	-1.1
N#CC(c1ccc(O)cc1)N1CCCCC1 (stereo unspecified)	0.65	5.6	0.2	x	x	2%&12%	-1.9
Cc1ccc(C(=O)CCC(=O)OC(C)C(=O)NC2CCCCC2C)cc1 (stereo unspecified)	0.64	0.8	2.8	-1.1	i	0%	x
COc1cccc(-c2nnc(SCC(=O)Nc3ccc(S(N)(=O)=O)cc3)n2C)c1	0.72	1.1	-0.9	x	x	4%	5.0
CC(C)N(C(=O)[C@H]1C[C@H](CC(=O)NC(C)(C)C)C(=O)N2CCc3c([nH]c4ccc(Cl)cc34)[C@]12C)C(C)C	0.68	2.3	-3.9	8.4	i	x	x
CCCCNC(=O)C1CCC(CNS(=O)(=O)c2cccc3nsnc23)CC1 (stereo unspecified)	0.69	5.3	-0.7	0.0	i	2%	0.1
COc1ccccc1OCCSc1nnnn1-c1ccc(C)cc1	0.7	4.2	0.0	-0.9	i	-4%	-0.6
C=CCn1c(SC(C)C(=O)Nc2ccc(Cl)cn2)nnc1C1CC1 (stereo unspecified)	0.61	-0.8	-0.9	-1.4	i	-1%	2.4
COc1cc(/C(C)=N/Nc2ccc(C(=O)O)cc2)cc(OC)c1OC	x	x	-0.5	x	x	-5%	-2.3
O=S(=O)(NCc1cccs1)c1cccc2cccnc12	0.65	2.2	0.4	x	x	4%	-0.4
Cc1cc(C)nc(/N=C(\NC(=O)C(C)(C)C)Nc2ccc(F)cc2)n1	x	x	1.9	0.2	i	-1%	8.9
COc1ccc(C(=O)N/N=C(\C)CC(=O)Nc2ccccn2)cc1OC	x	x	0.6	-1.6	i	x	-2.4
O=S(=O)(c1cccc(F)c1)N1CCC(CO)(Cc2cccc(F)c2)CC1	0.67	-0.1	2.2	-0.8	i	-4%	-4.0
c1ccc2sc(NC3=NCN(C4CCCCCC4)CN3)nc2c1	0.67	2.0	1.4	1.2	i	23%	0.4
O=S(=O)(Nc1cccc(-c2cn3cccnc3n2)c1)c1ccc(Cl)cc1	x	x	-1.4	5.0	i	x	-5.2
C[C@@H]1CN([C@H](C)CO)C(=O)c2cc(NC(=O)C3CCCCC3)ccc2O[C@@H]1CN(C)Cc1ccc(C(F)(F)F)cc1	0.76	0.4	-3.7	0.0&1.0	i	x	x
O=C(CSc1ccc2ccccc2n1)c1ccccc1	0.62	2.8	1.5	-0.6	i	-2%	11
COc1cccc2sc(NC(=O)c3ccc(S(=O)(=O)N4CCOCC4)cc3)nc12	0.71	0.7	-2.7	-29	i	1%&-8%	2.6
O=c1cc(CO)oc(CN2CCC(Cc3ccccc3)CC2)c1O	0.76	4.6	1.5	x	x	11%	-0.3
COc1ccc(C(=O)NC(C)CCc2ccccc2)cc1[N+](=O)[O-] (stereo unspecified)	0.64	0.3	1.2	0.9	i	1%	-0.3
COc1cc(/C=N/OCC(=O)Nc2cc(C)cc(C)c2)ccc1OCc1ccc(Cl)cc1	x	x	7.2	3.5	i	x	26*
CCNC(=O)C1(C)CCCN(C(=O)c2ccc(OC)c(F)c2)C1 (stereo unspecified)	x	x	0.9	-1.1	i	x	x
COc1ccc(C(=O)NCc2cccnc2)cc1C(=O)NCc1cccnc1	0.65	4.0	-2.0	-5.9	i	x	x
COc1ccccc1OC(C)C(=O)Nc1ccc(S(=O)(=O)N2CCN(C)CC2)cc1 (stereo unspecified)	0.67	2.4	-1.8	0.5	i	1%	-3.8
CCN(CC)S(=O)(=O)c1cccc(NC(=O)CNc2cccc(S(=O)(=O)N3CCCC3)c2)c1	0.61	-0.3	1.1	0.9	i	x	-1.2
O=C(CN1CCCCC1)N1CCCc2ccccc21	0.7	2.2	4.3	11	i	8%	4.2
COc1ccccc1NC(=O)CCSCCC(=O)Nc1ccccc1OC	0.69	3.2	0.7	x	x	1%	-3.6
CCCCn1c(=O)[nH]c(=O)c2c1nc(-c1ccc(CC)c([N+](=O)[O-])c1)n2C	0.66	2.8	x	x	x	-18%	-1.5
Cc1cc(Cn2nc(C(=O)NCc3cccs3)cc2-c2ccccc2)on1	0.68	-0.3	0.4	-0.1	i	x	x
CC(=O)Nc1ccc(N=Nc2ccc(O)cc2)cc1	0.69	16	1.1	x	x	x	2.3
CC1=C(C(=O)OC(C)C)C(c2ccc(C)o2)NC(=O)N1 (stereo unspecified)	0.72	3.8	-2.1	x	x	5%	6.1
Cc1ccc(C(=O)NNC(=O)c2ccc(S(=O)(=O)N3CCCCC3)cc2)cc1	0.67	3.6	5.3	-0.1	i	9%	x
CCN(CC)CCNc1ncnc2c1sc1nc(N3CCCC3)c3c(c12)CC(C)(C)OC3	0.7	0.4	4.2	12	x	-1%	0.8
Cc1ccc(C)c(N(C)C(=O)c2coc(=O)c3ccccc23)c1	0.72	5.7	-0.8	x	x	-2%	-0.2
COc1ccc(NC(=O)C2CC(=O)N(CCc3ccc(Cl)cc3)C2)cc1 (stereo unspecified)	0.7	3.0	2.3	-1.7	i	-1%	u

Following part:
smiles	Ecoli growth	UCH37 DUB inh	HNF4A DNA FP	MLL AF4-AF9 inh	FGF22 binding	Vif A3G	RanGTP-Imp inh
Fc1ccccc1Nc1nc(N2CCOCC2)nc(N2CCOCC2)n1	0.69	-2.5	1.4	-1.1	i	x	-1.6
COc1ccccc1NS(=O)(=O)c1cccc(NC(=O)C2CC2)c1	0.67	-1.0	4.0	-0.7	i	5%	x
CC(NC(=O)Cn1cc(C(=O)C2CC2)c2ccccc21)c1ccccc1 (stereo unspecified)	0.75	1.0	-1.1	x	x	-5%	-3.1
CC(=O)Nc1ccc(S(=O)(=O)Nc2nnc(C(C)C)s2)cc1	0.73	1.6	-1.4	x	x	>100µM*	-0.9
CN(Cc1ccc(Cl)cc1)C(C(=O)NC1CCCCC1)c1ccnc2ccccc12 (stereo unspecified)	x	x	-2.2	1.3	i	x	x
CCOC(=O)C1CCN(C(=O)c2ccc3c(c2)OCO3)CC1	0.71	0.9	1.1	x	x	-1%	8.6
COc1cccc(NC(=O)CN2CCN(S(=O)(=O)c3ccc(C(C)C)cc3)CC2)c1	0.74	3.9	-2.1	x	x	6%	1.1
Cc1ccc(S(=O)(=O)NC(=O)C2(C)CCN2C(=O)c2ccccc2CCc2ccccc2)cc1 (stereo unspecified)	x	x	-0.9	-2.6	i	x	x
CCOC(=O)C1CCN(C(=O)c2ccccc2)C(CC)C1=O (stereo unspecified)	x	x	-1.1	-12	i	x	x
CC1CC(C)CN(C(=O)c2ccc3nc[nH]c3c2)C1 (stereo unspecified)	0.67	-0.2	-2.6	-0.8	i	x	2.3
O=C(Cn1ncc(N2CCCC2)c(Cl)c1=O)c1ccc(Cl)cc1	0.66	5.3	0.3	0.6	i	3%	4.0
CC(=O)c1ccc(OCC(=O)NC2CCS(=O)(=O)C2)cc1 (stereo unspecified)	0.69	4.1	-5.5	x	x	-1%	-3.4
O=C(Nc1ccc2c(c1)CN(C(=O)Nc1ccc(F)cc1)CC2)c1ccccn1	x	x	6.3	2.8	i	-6%	x
O=C(NC(=S)Nc1ccc2oc(=O)ccc2c1)c1cccc(Cl)c1	x	x	0.5	-0.3	i	x	-0.7
CC(=O)C1CCC2C3CC(C)C4=CC(=O)CCC4(C)C3C(=O)CC12C (stereo unspecified)	0.71	-0.1	-0.7	3.4	i	7%	x
O=C(O)c1ccc(-c2nnn(Cc3cccc(C(F)(F)F)c3)n2)cc1	0.66	-1.8	4.6	8.0	i	18%	5.5
O=C(c1ccc(Br)c(S(=O)(=O)N2CCCCC2)c1)N1CCCCC1	0.7	5.1	-3.5	0.1	i	7%	2.1
Cc1nn(CC(=O)NCCc2ccco2)c(=O)c2nn(-c3ccccc3)c(C)c12	0.73	1.3	-17	-1.4	i	x	0.8
COCC(C)N1CCC(n2nccc2NC(=O)CCCc2ccccc2)CC1 (stereo unspecified)	0.67	-0.6	1.6	-2.3	i	-10%	6.9
COc1cc2nc(Nc3ccc(C)c(C)c3)nc(N)c2cc1OC	0.57	-19	4.5	26*	i	x	3.7
